# Rango dissoc inh: qHTS Assay for Inhibitors of RanGTP induced Rango (Ran-regulated importin-beta cargo) - Importin beta complex dissociation. Snurportin-1 (Homo sapiens) + GTP-binding nuclear protein Ran (Homo sapiens) + Importin …. Biochemical FRET Rango-importin beta, RanGTP-induced dissociation. Potency, µM (titrated, usually from 46.1 µM), inactives show top-dose activity change, negative = inhibition. 0.071% of 340,000 active. AID 540253, 2011; active means falling FRET ratio curve, often poorly fitted, with flat reads before Ran was added; inconclusive means other falling curves, or compound fluorescence or quenching; inactive means flat or rising ratio curve;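 note: potency is the fitted concentration of half-maximal effect; % of control where 0% means no effect; nearly all actives have a fitted effect of over 45% in size; -100% = wells without RanGTP and RCC1; the record marks most hits as doubtful in a second field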
#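 FRET read at 45 min, room temperature: inhibitors block the CFP/YFP signal rise when RanGTP (0.6 uM Ran, 2 mM GTP, 0.2 uM RCC1) frees Rango (0.1 uM) from importin beta (0.25 uM). Pre-read after 5 min compound exposure flags interference.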
# miR-21 FLuc: qHTS Assay for Modulators of miRNAs and/orActivators of miR-21; HeLa miR-21 FLuc reporter, luciferase, 48 h; Potency, µM (doses to about 38.3 µM), inactives show at the highest dose reporter change, positive = more light; 340,000 tested, under 10 active; AID 2288, 2010; active = well fitted rising curve with a large enough effect; inconclusive = small, poorly fitted or top-dose-only effect; inactive = no such curve, though single readings can be large or run the other way;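 note: % of control where 0% means no effect; miR-21 action dims this reporter so a rising signal means less miR-21 action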
#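 Using DMEM plus 10% FBS, HeLa miR-21-FLuc cells are incubated with test compounds (final up to about 40uM) for 48 hours; firefly luciferase signal is then imaged following reagent-mediated lysis.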
# GLA inh pH 4.5: qHTS Assay for Inhibitors of Human alpha-Galactosidase at pH 4.5; Alpha-galactosidase A (Homo sapiens), P06280; purified enzyme, 4-MU-alpha-Gal fluorescence, pH 4.5; 230,000 tested, under 10 active; activity change, negative = inhibition, % at 105 µM; inconclusive = small, poorly fitted or top-dose-only inhibition, or a rising curve; inactive = flat fitted curve, though single readings scatter; no compound was filed as active;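 note: 0% = full activity with enzyme and -100% = basal without enzyme; dose as in the result columns while the protocol names 77 µM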
# Target sequence (P06280 whole entry, looked up): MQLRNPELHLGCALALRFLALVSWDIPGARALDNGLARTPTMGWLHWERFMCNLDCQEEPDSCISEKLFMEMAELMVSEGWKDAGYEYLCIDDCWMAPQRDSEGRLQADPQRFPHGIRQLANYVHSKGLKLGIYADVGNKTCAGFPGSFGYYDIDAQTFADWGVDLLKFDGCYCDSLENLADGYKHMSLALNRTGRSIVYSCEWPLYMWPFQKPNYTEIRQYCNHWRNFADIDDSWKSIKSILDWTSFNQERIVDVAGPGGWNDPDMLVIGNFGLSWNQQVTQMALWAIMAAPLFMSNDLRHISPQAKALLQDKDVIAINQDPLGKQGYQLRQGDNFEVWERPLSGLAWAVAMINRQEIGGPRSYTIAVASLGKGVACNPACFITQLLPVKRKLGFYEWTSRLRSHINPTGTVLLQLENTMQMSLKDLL
# Rango complex inh: qHTS Assay for Inhibitors of Rango (Ran-regulated importin-beta cargo) - Importin beta complex formation; Rango CFP/YFP FRET sensor + importin beta, 45 min; AID 540263, 2011; 0.031% of 340,000 active; Potency, µM (series often up to 92.2 µM), inactives show at the highest dose inhibition of complex formation; active = rising FRET ratio curve, often small or poorly fitted; inconclusive = mostly compound fluorescence or quenching in the first reads; inactive = flat curves in all reads;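 note: potency is the fitted concentration of half-maximal effect; 0% = DMSO wells and 100% = buffer wells lacking importin beta; nearly all actives have a fitted effect of over 15% in size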
#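 FRET biosensor Rango (snurportin 1 IBB between N-terminal EYFP and C-terminal Cerulean), 50 nM in PBS/1 mM DTT/0.02% Tween-20/0.1% BSA, preincubated 5 min RT with compound; 0.125 microM importin beta added, 45 min RT, CFP/YFP FRET ratio read.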
# Active calls of the source: *; u = inconclusive; x = not tested or not shown; & = joins results of further samples.
# Below each compound – Rango complex inh	GLA inh pH 4.5	miR-21 FLuc	Rango dissoc inh
CCOC(=O)c1c(NC(=O)c2cnn3c2NC(c2cccc(OC)c2)CC3C(F)(F)F)sc2c1CCCC2 (centres undefined)
 : -0.9%	3	1%	-5%
Cc1ccc(C(=O)N2CCOCC2)cc1[N+](=O)[O-]
 : -2.7%	-2	-1%	4%
COc1ccc(C(CNC(=O)c2cc(C)oc2C)N2CCOCC2)cc1 (centres undefined)
 : -2.5%	7	-10%	-13%
Cc1ccc(C)c(S(=O)(=O)Nc2ccc(C(N)=O)cc2)c1
 : 2.4%	2	-1%	u
CN(C)S(=O)(=O)c1cccc(NC(=O)CNCc2ccccn2)c1
 : -1.1%	-6	-1%	4%
O=C(Nc1cccc(C(=O)N2CCOCC2)c1)c1ccc([N+](=O)[O-])cc1
 : 3.8%	x	-3%	1%
CCC(C)NC(=S)Nc1ccc2nc(N3CCOCC3)cc(C)c2c1 (centres undefined)
 : -1.6%	x	-13%	-20%
CCOc1ccc(-c2nnc(-c3cccnc3)o2)cc1OCC
 : -2.9%	-20	-35%	2%
CC[N+]1(C)CCC(O)(/C=C/c2ccccc2)C(C(=O)/C=C/c2ccccc2)C1 (centres undefined)
 : 2.8%	x	x	13%
Cc1ccc(C(=O)Nc2ccc3[nH]c(=O)[nH]c3c2)c(C)c1
 : -0.6%	-4	-38%	-2%
COc1cccc(CNC(=O)c2ccc(CS(=O)c3ccccc3)o2)c1 (centres undefined)
 : 1.6%	x	3%&-1%	0%
Cc1ccc(CN2CCN(C3CCC3)CC2CCO)cc1 (centres undefined)
 : u	x	-3%	8%
CCN(CC1COc2ccccc2O1)C(=S)NC1CC2CCC1C2 (centres undefined)
 : -1.6%	4	15%	-3%
COc1ccc(Oc2nc(SC)nc3ccccc23)cc1
 : -0.3%	1	-1%	-15%
CCOC(=O)c1c(C)[nH]c(C)c1S(=O)(=O)NCC1CCN(Cc2ccccc2F)CC1
 : -1.6%	x	-23%	-10%
COc1cc2[nH]c(=S)nc(Nc3ccc(NC(C)=O)cc3)c2cc1OC
 : -6.4%	-3	-1%	23%
O=C1NCCCC2c3c(cc(Br)c(O)c3Br)OC12N1CCOCC1 (centres undefined)
 : 5.0%	7	-4%	-12%
COc1cccc2cc(C(C)N(CCCN3CCOCC3)C(=S)Nc3cccc(C)c3C)oc12 (centres undefined)
 : 4.9%	-5	2%	12%
COC(=O)C1=NN(C(C)=O)C2(CC(=O)N(c3cccc(C)c3)C2=O)C1 (centres undefined)
 : 2.0%	7	-2%	16%
CCn1c(SCC(=O)N2CCC(C)CC2)nnc1-c1ccc(S(=O)(=O)N2CCN(C)CC2)cc1
 : -0.2%	3	-1%	1%
C=CC[C@@H](CC(=O)N(CCO)Cc1ccccc1)C(=O)N[C@@H](COC(=O)[C@@H](CC=C)CC(=O)OC(C)(C)C)Cc1c[nH]c2ccccc12
 : -2.6%	x	x	2%
COc1ccc(NC(=S)Nn2cnnc2)cc1OC
 : 0.4%	-1	2%	0%
Cc1ccc(NC(=O)/C(=C/c2cccs2)NC(=O)c2ccco2)cc1
 : -3.5%	3	-10%	20%
O=C(NC1CCCCCC1)c1c(O)c2ccccc2[nH]c1=O
 : 0.9%	4	-40%	9%
Cc1cccc(NC(=O)CN(C)C(=O)c2ccc(N3CCCCCC3)c([N+](=O)[O-])c2)c1C
 : -0.6%	x	x	-4%
CCCn1c2c(c(O)c(C(=O)Nc3ccc(OCC)cc3)c1=O)CCCC2
 : -0.8%	-2	-3%	2%
Cc1nn(C)cc1C(C(=O)NC1CCCCC1)N(C(=O)Cc1cccs1)c1ccc(C(C)C)cc1 (centres undefined)
 : -2.2%	-8	3%	-9%
CCOc1ccccc1NS(=O)(=O)c1cn(C)c(=O)n(C)c1=O
 : -0.3%	-6	1%	0%
Cc1c(C)n(CC(O)CNCCO)c2ccccc12 (centres undefined)
 : 0.3%	2	-1%	9%
CS(=O)(=O)N(CC(=O)NC1CCCC1)Cc1ccc(Cl)cc1
 : 1.5%	5	5%	-11%
COc1ccc(C(=O)/C=C/c2ccc(OC(=O)c3cc(OC)c(OC)c(OC)c3)cc2)cc1
 : -2.0%	x	-7%	-8%
COc1ccc(-c2sc(Nc3cccc4ccccc34)n[n+]2C)c(C)c1C
 : -3.3%	x	x	8%
COc1ccc(C(=O)c2c(C)oc3ccc(O)c(CN4CCOCC4)c23)cc1
 : u	2	18%	13%
O=C1c2ccccc2C(=O)N1CCCCc1cn(C[C@H]2CC[C@H](Cn3cc(CCCCN4C(=O)c5ccccc5C4=O)nn3)O2)nn1
 : u	x	x	u
O=C(N/N=C/c1ccccc1F)NC1CCCCC1
 : 4.9%	-7	-78%	14%
Cc1cc(C(F)F)nn1CC(=O)NC1CCCCCC1
 : 0.3%	x	0%	0%
Cc1ccc2nc(NC(=O)CCCC(=O)O)sc2c1
 : 2.7%	2	u	-5%
COc1ccc(/C=N/NC(=O)c2nnn(-c3nonc3N)c2CN(C)C2CCCCC2)cc1
 : 0.7%	x	0%	3%
O=C(O)c1cnn(-c2ccccc2)c1-c1ccncc1
 : u	x	1%	-19%
O=C(N/N=C/c1ccc(N2CCOCC2)cc1)c1ccc(NS(=O)(=O)c2cccs2)cc1
 : -0.5%	u	-26%	-8%

# Ordered by count of non-hydrogen atoms (rising): some entries from above
# Below each compound – Rango complex inh	GLA inh pH 4.5	miR-21 FLuc	Rango dissoc inh
Cc1ccc2nc(NC(=O)CCCC(=O)O)sc2c1
 : 2.7%	2	u	-5%
Cc1cc(C(F)F)nn1CC(=O)NC1CCCCCC1
 : 0.3%	x	0%	0%
COc1ccc(-c2sc(Nc3cccc4ccccc34)n[n+]2C)c(C)c1C
 : -3.3%	x	x	8%
COc1ccc(C(=O)c2c(C)oc3ccc(O)c(CN4CCOCC4)c23)cc1
 : u	2	18%	13%
O=C(N/N=C/c1ccc(N2CCOCC2)cc1)c1ccc(NS(=O)(=O)c2cccs2)cc1
 : -0.5%	u	-26%	-8%
COc1ccc(C(=O)/C=C/c2ccc(OC(=O)c3cc(OC)c(OC)c(OC)c3)cc2)cc1
 : -2.0%	x	-7%	-8%

# More structures
# Below each compound – Rango complex inh	GLA inh pH 4.5	miR-21 FLuc	Rango dissoc inh
C/C(=N/Nc1nc(-c2ccccc2)cc(-c2ccc(F)cc2)n1)c1cccc(N)c1
 : 2.1%	-10	27%	7%
Cc1ccc(CNC(=O)COC(=O)c2ccc(S(=O)(=O)N3CCCC3)cc2)cc1
 : 0.9%	3	0%	4%
O=C(C#Cc1ccccc1)c1cccc([N+](=O)[O-])c1
 : -1.8%	-3	8%	15%
C/C(N)=C(/C#N)C(=O)CSc1ccccc1F
 : -3.9%	4	-68%	-20%
CC(C)(C)n1ncc2c(=O)n(CC(=O)Nc3ccccc3)cnc21
 : -3.5%	-2	-27%	-2%
Cc1nc(Cl)c(C(=O)NCCC(C)C)c(C)c1[N+](=O)[O-]
 : 1.1%	10	-8%	5%
CCOC(=O)c1ccc(CC(=O)c2ccc(O)c(O)c2O)o1
 : -1.0%	3	2%	-10%
O=C(COC(=O)c1nc(Cl)ccc1Cl)NC1CCS(=O)(=O)C1 (centres undefined)
 : 5.0%	x	x	28%
O=C1C2CCCCC2C(=O)N1c1ccc(S(=O)(=O)Nc2ncccn2)cc1 (centres undefined)
 : -0.2%	x	3%	1%
O=C1C(=O)N(c2ccccn2)C(c2cccc(F)c2)/C1=C(/O)c1ccccc1 (centres undefined)
 : 5.1%	x	-5%	7%
COCCCNC(=S)NC(=O)c1ccc([N+](=O)[O-])cc1
 : -0.3%	2	-13%	-6%
O=C(/C=C/c1ccc(F)cc1)Nc1cccc(S(=O)(=O)Nc2cccc(C(F)(F)F)c2)c1
 : -2.9%	-9	-8%	-16%
CCOC(=O)c1[nH]cnc1C(=O)Nc1ccc(F)cc1
 : u	-5	-1%&3%	-11%
O=C(CCSc1ccc(Br)cc1)Nc1cccnc1
 : 4.3%	10	2%	5%
CCOc1ccc(NC(=O)CN(C)C(=O)c2cc(-c3ccco3)nc3ccccc23)cc1OCC
 : -2.5%	x	x	14%
COc1ccc(C(=O)N(CN2CCCC2=O)c2ccc(C)cc2)cc1
 : -4.3%	0	0%	-6%
CCOC(=O)CN1C(=O)S/C(=C/c2ccc(OC)c([N+](=O)[O-])c2)C1=O
 : 1.4%	-9	-4%	0%
COc1ccc(CN2CCNC(=O)C2CC(=O)NCC2CCOCC2)c(C)c1C (centres undefined)
 : -0.3%	x	2%	-2%
CCN1CCN(S(=O)(=O)c2ccc(Cl)c(C(=O)NCCOc3ccc(C)cc3)c2)CC1
 : 3.7%	x	x	-10%
CN1CSC2=C(C#N)C(c3cccc(OCc4ccccc4)c3)CC(=O)N2C1 (centres undefined)
 : -0.8%	-8	-5%	6%
Cc1[nH]c(C)c(C(=O)/C=C/c2ccc([N+](=O)[O-])cc2)c1C
 : -3.4%	x	u	-1%
CC(C)(C)c1ccc(OCCNC(=S)Nc2ccccc2)cc1
 : -1.5%	2	7%	12%
Cc1ccc(Cn2ccc(NC(=O)c3cc(-c4ccc(Br)cc4)on3)n2)cc1
 : 4.0%	5	-7%	31%
O=C(NCc1ccccc1)c1c(O)c2ccccc2[nH]c1=O
 : -0.5%	x	-5%	4%
NC(=O)C1CCN(C(=O)c2ccc3c(=O)n(Cc4cccc(Br)c4)c(=S)[nH]c3c2)CC1
 : -0.8%	x	9%	-1%
CC(C)CNS(=O)(=O)c1ccc(CCC(=O)Nc2ccc3c(c2)OCO3)cc1
 : 1.3%	1	-3%	-15%
COc1ccc(C)cc1S(=O)(=O)N(C)CC(=O)N1CCCCCC1
 : -0.9%	1	-1%	1%
CN(Cc1cnccn1)Cc1c(C(=O)N2CCc3ccccc3C2)nc2ccc(Cl)cn12
 : 1.3%	3	-8%	18%
Cc1ccc2c(c1)N(C(=O)CCC(=O)NC1CCCCCC1)CC(C)O2 (centres undefined)
 : -5.9%	x	-4%	0%
CCC(NC(=O)c1ccccc1NC(=O)c1ccco1)C(=O)NNC(=O)c1ccncc1 (centres undefined)
 : -1.2%	-4	-3%	7%
Cc1ccc(S(=O)(=O)N2CCCCC2)cc1NC(=O)Nc1ccc(Cl)cc1Cl
 : 0.6%	-8	-2%	-3%
Cc1cc(C)cc(NC(=O)C(OC(=O)c2cc[n+]([O-])cc2)c2ccccc2)c1 (centres undefined)
 : 3.0%	x	x	-8%
C[C@H](CO)N1C[C@H](C)[C@@H](CN(C)S(=O)(=O)c2cn(C)cn2)Oc2ccc(NC(=O)Nc3ccccc3)cc2C1=O
 : 1.3%	x	x	-10%
CC(=O)c1ccc(N2CCC(C(=O)O)CC2)cc1
 : 1.0%	1	2%	1%
O=C(COC(=O)COc1ccc(Br)cc1)NNC(=O)c1ccccc1
 : 3.0%	x	x	21%
O=C(CNC(=O)c1ccc(Cl)cc1Cl)OCc1ccccc1
 : -3.3%	x	x	4%
COc1ccc(OCC(=O)Nc2ccccc2C(=O)Nc2ccc(C(=O)O)cc2)cc1
 : -0.2%	x	-2%	8%
CCCOc1ccc(/C(O)=C2/C(=O)C(=O)N(CCN(C)C)C2c2ccc(OC)c(OC)c2)cc1 (centres undefined)
 : 3.2%	-2	1%	9%
Cn1c(CC(=O)NN)c(Sc2ccccc2)c2ccccc21
 : 0.4%	x	2%	-3%
COc1ccc(NC2CCCN(Cc3cccc4cnccc34)C2)cc1 (centres undefined)
 : -0.4%	x	7%	11%
CCCCNC(=O)NS(=O)(=O)c1ccc(C(=O)OC(C)C)o1
 : -0.7%	7	-1%	-11%

# Bioassay records: PubChem BioAssay, National Center for Advancing Translational Sciences (NCATS)

# Only part of the results is shown, so the mix of outcomes need not match the whole.
